TRPML1 agonist = human mucolipin-1 channel agonism; TRPML1-expressing cells, Ca2+ dye fluorescence, FDSS; host cell line not named in the record; reference of the full effect not given here; activation, % (no concentration beside the values); AID 624414; Q9GZU1; hit rate 0.12% among 410,000; in the data active = activation above about 50%; inconclusive = about 30% to 50%; inactive = below about 30%; further: 0% is about no effect; the text of the record puts the active cut at 80%
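Cells: TRPML1-DL, 1X Tet inducer, ~16 h at 37 degrees C/5% CO2. Dye: ABD Ca8 no-wash + quencher, 45-90 min RT. Read: 10 s baseline, compound add, 110 s agonist phase; 54-4 EC80 (4uM final), 110 s antagonist phase.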
D2 agonist = human D2 receptor agonism in beta-arrestin assay; P14416; DiscoveRx PathHunter D2 beta-arrestin, luminescence, 90 min; 100% = 57 uM dopamine signal; activation, % (concentration not given with the values); hit rate 0.084% among 360,000; AID 624465; in the data active = activation above about 40%; inconclusive = about 15% to 40%; inactive = below about 15%; further: compound concentration not given in the record; the text of the record calls up to 30% inactive
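Agonist mode: compounds alone added to overnight-plated D2 PathHunter cells for 90 min at 37 C, with 57 uM final dopamine (EC100) defining full response. Beta-arrestin recruitment detected by chemiluminescent reagent, read after 1 h at ambient temperature.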
Six1-Eya2 inh = blocks human Six1 binding to Eya2; AlphaScreen GST-Six1/His-Eya2 binding, biochemical; stronger effect = lower value; control for the full effect not named in the record; activity change, % (no concentration beside the values); hit rate 0.56% among 360,000; AID 651725; in the data active = activity change below about -65%; inconclusive = about -30% to -65%; inactive = above about -30%; further: on the % scale 0 is the no-effect control and ±100 the full control effect; compound concentration not given in the record
Target sequence (O00167 whole entry, looked up): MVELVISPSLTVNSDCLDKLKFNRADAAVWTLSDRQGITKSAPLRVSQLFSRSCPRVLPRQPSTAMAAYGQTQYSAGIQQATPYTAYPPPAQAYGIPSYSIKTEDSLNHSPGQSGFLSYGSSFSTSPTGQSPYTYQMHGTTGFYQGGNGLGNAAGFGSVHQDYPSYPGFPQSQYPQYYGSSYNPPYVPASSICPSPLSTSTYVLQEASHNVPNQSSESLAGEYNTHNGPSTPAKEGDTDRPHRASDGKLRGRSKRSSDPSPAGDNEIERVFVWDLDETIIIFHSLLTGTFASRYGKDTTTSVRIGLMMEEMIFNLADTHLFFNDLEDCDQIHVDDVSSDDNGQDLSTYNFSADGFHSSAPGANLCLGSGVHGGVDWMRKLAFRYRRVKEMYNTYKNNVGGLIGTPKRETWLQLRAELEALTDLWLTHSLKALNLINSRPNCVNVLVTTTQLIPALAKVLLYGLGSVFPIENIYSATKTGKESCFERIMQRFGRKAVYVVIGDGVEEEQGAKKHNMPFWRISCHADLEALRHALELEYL
Target sequence (Q15475 whole entry, looked up): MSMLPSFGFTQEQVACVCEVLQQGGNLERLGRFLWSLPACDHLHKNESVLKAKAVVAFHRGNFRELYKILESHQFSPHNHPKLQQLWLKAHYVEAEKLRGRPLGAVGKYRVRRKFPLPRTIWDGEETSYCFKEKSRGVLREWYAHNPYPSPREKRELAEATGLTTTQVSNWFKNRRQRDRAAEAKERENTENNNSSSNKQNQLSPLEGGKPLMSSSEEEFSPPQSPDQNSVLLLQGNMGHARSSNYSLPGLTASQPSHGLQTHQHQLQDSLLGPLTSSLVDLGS
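AlphaScreen with GST-Six1 and His-Eya2 (5X mix: 250 nM and 500 nM), glutathione donor and nickel acceptor beads; buffer 50 mM Tris pH 8.0, 300 mM NaCl, 1 mM TCEP; 1 h at 37 C in the dark.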
CtBP-E1A inh = CtBP/E1A binding inhibition. AlphaScreen GST-E1A/His-CtBP binding, 1536-well; stronger effect = lower value; control for the full effect not named in the record. hit rate 0.49% among 340,000. activity change, % (no concentration beside the values); in the data active means activity change below about -65%; inconclusive means about -30% to -65%; inactive means above about -30%; further: on the % scale 0 is the no-effect control and ±100 the full control effect; compound concentration not given in the record
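In 5 uL wells, 23 nL compound meets equimolar GST-E1A and His-CtBP (5X stock 125 nM each) for 2 h, 37 °C. Beads (5X, 50 ug/mL) then 1 h, 37 °C, dark.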
PINK1 modulator = changes PINK1 expression; PINK1 immunofluorescence, high-content cytometry, 24 h; Potency, µM (highest dose often 76.6 µM), inactives show top-dose activation (PINK1 increase), most hits filed as activators; hit rate 0.2% among 410,000; active = well fitted activation curve with a large enough effect; inconclusive = small, poorly fitted or top-dose-only effect; inactive = flat fitted curve, though single readings scatter; cell line not stated here;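 further: potency means the concentration at half of the fitted maximal effect; % of control where 0% means no effect; nearly all actives have a fitted effect of over 65% in size; a mitochondrial uncoupler was the plate control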
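Decision-based qHTS: stable cells, 24 h exposure to five compound concentrations, CCCP as control. Fixed cells stained for PINK1 plus nuclear, mitochondrial and cell markers, cytometer read.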
D2 PAM = potentiates the human D2 dopamine receptor allosterically; potentiation, % (no concentration beside the values); hit rate 0.23% among 360,000; P14416; DiscoveRx D2 beta-arrestin cells, luminescence, 90 min; 100% = 57 uM dopamine signal; active = potentiation of 50% or more; inconclusive = 30% to 50%; inactive = 30% or less;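 further: compound concentration not given in the record; tested on top of an EC20 dose of dopamine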
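PathHunter D2 cells, attached overnight at 37 deg C, received compound in DMSO plus dopamine at EC20 (50 nM final) for 90 min at 37 deg C. Beta-arrestin recruitment was read as luminescence after 1 h with detection reagent at ambient temperature.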
The depositor's hits bear a star; ? = inconclusive; nt = not tested or not shown; & = joins results of further samples; [ ] = dose if it differs, or a comment. Outcome played no part in choosing rows (roughly 1.3% active in at least one column).

SMILES	TRPML1 agonist	D2 agonist	Six1-Eya2 inh	CtBP-E1A inh	PINK1 modulator	D2 PAM
CCN(CCN(C)C)C(=O)C1CCN(S(=O)(=O)c2c(C)noc2/C=C/c2ccccc2F)CC1	7.1&3.5	-2.7	22.0	nt	3.5%&6.4%	-3.3
COc1ccc(CC(=O)Nc2cc(S(=O)(=O)N3CCOCC3)ccc2N2CCCC2)cc1OC	-0.9	0.3	4.4	-2.8	0.4%	-0.7
O=C(O)CCC(NC(=O)c1cncc(O)c1)C(=O)O (configuration not stated)	0.0	0.4	4.7	5.6	11.0%	-2.3
CCN1CCc2c(sc(NC(=O)CN3C(=O)c4ccccc4C3=O)c2C(N)=O)C1	0.7	2.0	-2.2	nt	0.4%	-15.4
COC(=O)c1c(-c2c(Cl)cccc2Cl)noc1C(=O)NN	-0.5	-0.9	2.8	-1.2	4.0%	-2.6
Cc1ccccc1NC(=O)c1cccc(NC(=O)c2ccco2)c1	-1.4	1.2	4.7	-0.1	0.6%	-3.6
O=C(Nc1ccccc1)c1cc(C2CCCN(C(=O)C/C=C/c3ccccc3)C2)on1 (configuration not stated)	-0.3	-2.6	-2.9	-3.3	0.3%	-1.2
CCCCNC(=O)c1ccccc1Cl	-0.1	-0.4	5.3	1.3	2.3%	2.2
CC(=O)Nc1ccc(C(=O)N2CCCC(c3cc(C(=O)Nc4ccccc4)no3)C2)cc1 (configuration not stated)	-0.2	-4.0	-5.6	0.4	0.6%	-10.1
CCN(c1ccccc1)S(=O)(=O)c1ccc(C(=O)Nc2ccncc2)cc1	-0.6	4.2	7.0	4.8	0.1%	22.3
CCCCN(C=O)c1c(CC)nc2ccc(C(=O)NCCOc3ccc(OC)cc3)cn12	-1.2	2.6	-3.1	7.7	0.2%	-0.9
O=C(OCC(=O)N1CCN(C(=O)c2ccco2)CC1)c1ccc(Cl)nc1	-1.1	-0.9	-4.5	nt	2.1%	-1.8
COc1ccc(NC(=O)C2=NN(c3ccccc3)C(=O)CC2)cn1	0.5	-3.8	-4.5	5.9	1.4%	-28.4
COC(=O)c1ccc2c(=O)n(CCN3CCOCC3)c(SCC(=O)C(C)(C)C)nc2c1	-0.7	-2.9	0.9	-4.9	21.0%[38.3 µM]	-15.4
CN(C)C1CN(Cc2cn(Cc3ccc(C(F)(F)F)cc3)nn2)S(=O)(=O)C1 (configuration not stated)	-0.6	nt	0.3	2.6	1.1%	nt
Cc1ccc(C(=O)CSc2n[nH]c(-c3ccco3)n2)cc1C	1.6	0.0	3.5	-3.6	2.2%	-14.8
COC(=O)[C@H](Cc1ccccc1)N1C/C=C\COc2c(Cl)cc(Cl)cc2S1(=O)=O	0.2	0.2	2.1	5.9	2.0%	2.7
COc1ccc(C(=O)NCCc2ccccc2F)cc1OC1CCN(C(C)=O)CC1	0.1	-0.4	0.6	0.6	-0.1%	1.4
O=C(Nc1nncs1)c1cccnc1Cl	0.9	-1.8	5.8	0.9	1.0%	-18.6
CCCCn1nnnc1C(c1ccccc1)N1CCN(C/C=C/c2ccccc2)CC1 (configuration not stated)	1.3	2.6	-16.0	-15.1	3.3%	-11.8
Cn1c(NC(=O)Cc2cccs2)cc(=O)n(C)c1=O	-0.8	-2.0	-10.1	-5.8	0.1%	-4.8
Cc1c(NC(=O)C2CC(c3ccc(F)cc3)=NO2)c(=O)n(-c2ccccc2)n1C (configuration not stated)	-0.4	-6.9	6.1	2.9	0.1%	-6.9
CCOc1ccc(NC(=S)N(CCCN2CCOCC2)Cc2cn(C)c3ccccc23)cc1	0.6	-3.1	-24.3	-23.2	-1.4%	-19.1
COC(=O)c1cccc(NC(=S)NCc2ccco2)c1	0.6	-1.3	-7.3	-2.6	0.3%	-3.7
O=C(COC(=O)CNC(=O)c1ccc(Cl)cc1Cl)NC1CCCCC1	0.2	1.3	11.3	-1.8	1.5%	18.3
COc1ccc(OC)c(C(=O)c2ccc(C(=O)O)cc2)c1	-0.3	-1.4	7.0	-0.8	5.2%	-13.5
CC1CCN(C2(O)C(=O)Nc3ccc(Br)cc32)CC1 (configuration not stated)	-0.4	-2.8	0.6	1.1	-1.3%	-21.6
CN(C)S(=O)(=O)c1ccc(C(=O)NCC2(N3CCCCC3)CCCCC2)cc1	-1.0	-4.2	3.6	-5.9	0.5%	-26.2
CCCn1c(=O)c2[nH]c(-c3ccc(S(=O)(=O)O)cc3)nc2n(CCC)c1=O	0.1	1.2	-0.7	-18.0	-0.4%	-9.9
COc1ccc(C2Nc3ccccc3C(=O)N2NS(=O)(=O)c2ccc(C)cc2)cc1OC (configuration not stated)	-1.5	-3.4	2.6	-5.7	2.5%	-2.4
COc1ccc(CCNC(=O)COc2cc(C)cc3oc(=O)c(C)c(C)c23)cc1OC	nt	2.9	1.9	2.3	1.6%	-18.9
CCCCNC(=O)c1nn2cc(Br)cnc2c1Br	1.2	0.5	-23.9	nt	-0.2%	-2.0
Cc1ccccc1-c1csc(C(O)(c2ccccc2)C(F)(F)F)n1 (configuration not stated)	-0.7	1.5	1.0	5.0	0.9%	-2.7
Cc1cc(=O)oc2cc(Oc3ccc([N+](=O)[O-])cc3[N+](=O)[O-])ccc12	1.6	4.6	-0.4	-1.7	-3.0%	-6.8
Cc1sc2nc(C(C)C)nc(SCC(=O)N3CCOCC3)c2c1C	2.0	7.2	6.5	2.7	1.1%	4.4
COc1ccccc1OCCC(=O)OCC(=O)Nc1cc(S(=O)(=O)N2CCOCC2)ccc1Cl	-0.1	-4.7	-6.5	-8.8	0.0%	-2.8
O=C(COC(=O)CCC1CCCC1)Nc1ccc(Cl)cc1F	0.1	0.8	20.6	16.8	2.8%	-3.9
CCC(c1nnc(SCCNCCO)n1CCN1CCOCC1)N(C)C (configuration not stated)	0.1	-1.7	-14.8	-1.0	-0.8%	16.0
O=C(Nc1nccs1)c1cc(-c2ccccn2)nc2c(Cl)cccc12	-0.4	5.8	-9.9	-2.7	9.8%	-1.7
COc1ccc(-c2csc(-c3ccc(C(=O)O)cc3)n2)cc1	0.2	-7.7	-4.1	nt	-0.7%	-6.2
CC(=O)N1CCc2cc(S(=O)(=O)NCCCN3CCN(Cc4ccccc4)CC3)ccc21	-0.5	0.0	1.8	-0.5	-1.1%	-14.3
Cc1nc2ccc(S(=O)(=O)NCC(=O)N3CCN(c4ccccc4)CC3)cc2s1	2.3	1.0	0.9	-0.8	-1.9%	3.2
NC(=O)c1ccc(NC(=O)c2ccc3c(c2)CCN3S(=O)(=O)c2ccccc2)cc1	0.9	1.2	0.4	2.3	7.5%	6.3
CCn1c(SCc2cccc(C(=O)O)c2)nnc1-c1ccc(Cl)cc1	1.0	-2.6	86.3	0.0	3.3%	-1.7
COc1ccccc1-c1nc(C#N)c(N2CCN(c3ccccc3)CC2)o1	-1.5	-1.2	?	-18.6	1.1%	9.5
N#Cc1c(Cl)nc(N/N=C/c2ccccc2)c(Cl)c1Cl	0.3	0.6	7.6	2.5	-1.2%	-9.9
CCC(=Cc1ccc(CC)cn1)CC	-0.5	-2.2	-4.0	-3.7	-0.6%	-8.4
Cc1cc(Cl)nc2c(C(C)C)cccc12	4.5	-5.9	-0.2	15.3	9.8%	1.4
O=C(NN=Cc1ccc2c(c1)OCO2)c1ccc([N+](=O)[O-])cc1	-0.9	7.5	1.8	-19.5	2.7%	-9.2
Cc1nc2nc(-c3ccccc3)nn2c(C)c1Cl	0.0	-2.5	3.1	-6.0	-5.2%	2.5
Cc1ccc(SC(=O)c2c(C)noc2-c2cc(C)on2)cc1	-0.4	-2.2	2.0	5.4	4.4%	-12.7
O=C1CCC(C(=O)NCc2ccccc2)N1 (configuration not stated)	0.3	1.1	-1.8	-2.3	0.1%	-1.9
CCN(Cc1ccccc1)Cc1ccc(OCc2ccccc2)cc1	2.0	-3.7	0.6	nt	?	-68.2
COc1cc(C(=O)N2CCN(C3=NS(=O)(=O)c4ccccc43)CC2)cc(OC)c1OC	0.2	-1.4	7.7	-9.7	1.2%	-4.1
O=C(c1ccc(S(=O)(=O)N2CCCCC2)cc1)c1nnc(-c2ccc(Cl)cc2)o1	-0.4	-1.3	1.4	10.3	?	-9.1
CC1CCN(C(=O)COC(=O)C23CC4CC(CC(O)(C4)C2)C3)CC1	0.0	3.4	0.9	7.8	-0.4%	-2.2
O=C(NCCN1CCOCC1)c1ccccc1-c1ccccc1	-0.3	1.0	7.8	-1.7	0.6%	0.4
CCOCCCNC(=O)C1CCN(C(=O)Nc2ccc(Cl)cc2)CC1	-0.8	-2.2	3.4	5.7	1.6%	1.2
Clc1nn2cnnc2c2ccccc12	0.8	-1.3	4.1	nt	5.0%	-1.1
Oc1ccc(/C=N/N2CCCCC2)cc1O	0.2	43.5*	-7.6	2.3	-0.2%	-10.8

Copied from the list.
For PINK1 modulator, `O=C1CCC(C(=O)NCc2ccccc2)N1` (configuration not stated) has 0.1%
For D2 PAM, `CCOCCCNC(=O)C1CCN(C(=O)Nc2ccc(Cl)cc2)CC1` has 1.2
For PINK1 modulator, `Cc1nc2nc(-c3ccccc3)nn2c(C)c1Cl` has -5.2%

The results go on:
SMILES	TRPML1 agonist	D2 agonist	Six1-Eya2 inh	CtBP-E1A inh	PINK1 modulator	D2 PAM
CCOC(=O)C1(Cc2ccc(Cl)cc2)CCN(C(=O)C2CCCO2)CC1 (configuration not stated)	-0.3	0.7	1.7	0.4	-1.4%	-0.5
COC(=O)[C@@]1(Cc2ccccc2)[C@H]2C(=O)N(Cc3ccccc3)C(=O)[C@H]2[C@H]2CN(C)C(=NCc3ccccc3)N21	0.4	-4.8	6.3	-7.8	-0.6%	nt
Cn1cc(CN2CCN(c3ccc(Cl)cn3)CC2)c(-c2ccccc2F)n1	-0.2	-0.4	-12.4	-11.0	-0.5%	-17.5
O=C(Cn1nnc(-c2ccc(OCc3ccccc3F)cc2)n1)N1CCOCC1	0.5	-2.1	-8.5	-6.1	1.4%[38.3 µM]	-0.9
CC(C)CC(=O)N1CCN(c2ccc([N+](=O)[O-])cc2Cl)CC1	2.7	0.9	-3.0	-2.2	-1.0%	-1.1
Fc1ccc(NC(=S)N/N=C/c2ccc(F)c(F)c2)c(F)c1	0.3	-2.6	5.8	-1.1	nt	-21.7
O=C(NCc1cccs1)Nc1ccc(Cl)cc1	0.8	-2.5	-8.2	-1.1	-1.1%	-35.5
CC(=O)Nc1ccc(S(=O)(=O)N2CCN(C(=O)C3COc4ccccc4O3)CC2)cc1 (configuration not stated)	0.8	-0.7	-13.2	-1.6	0.3%	-7.6
CCOC(=O)[C@@H]1[C@H]2COc3cc(OC)ccc3[C@H]2N2C(=O)N(c3ccc(C(F)(F)F)cc3)C(=O)[C@@]12C	1.2	-0.3	1.0	-3.1	0.8%	-6.4
Cn1ccnc1C(=O)c1cccc([N+](=O)[O-])c1	0.4	-5.4	-3.0	1.4	2.6%	13.6
